LANA-H2A inh: blockers of LANA interaction with H2A/H2B – biochemical, FP readout, HTS, primary screen; Protein LANA1 (Human herpesvirus 8 type P (isolate GK18)), Q9QR71; cell-free LANA-H2A/H2B peptide, fluorescence polarization; inhibition, % (no concentration beside the values); hit rate 0.6% among 320,000; AID 2629, 2010; in the data active = inhibition mostly above about 10%, no sharp cut-off; inactive = mostly below about 6.7%;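 also: stock transfer was 7.5 nL into about 10 µL; 0% = median of vehicle wells and 100% = median of positive control wells; one replicate is shown; the record names a cut of 25% in any replicate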
Target sequence (Q9QR71 whole entry, looked up): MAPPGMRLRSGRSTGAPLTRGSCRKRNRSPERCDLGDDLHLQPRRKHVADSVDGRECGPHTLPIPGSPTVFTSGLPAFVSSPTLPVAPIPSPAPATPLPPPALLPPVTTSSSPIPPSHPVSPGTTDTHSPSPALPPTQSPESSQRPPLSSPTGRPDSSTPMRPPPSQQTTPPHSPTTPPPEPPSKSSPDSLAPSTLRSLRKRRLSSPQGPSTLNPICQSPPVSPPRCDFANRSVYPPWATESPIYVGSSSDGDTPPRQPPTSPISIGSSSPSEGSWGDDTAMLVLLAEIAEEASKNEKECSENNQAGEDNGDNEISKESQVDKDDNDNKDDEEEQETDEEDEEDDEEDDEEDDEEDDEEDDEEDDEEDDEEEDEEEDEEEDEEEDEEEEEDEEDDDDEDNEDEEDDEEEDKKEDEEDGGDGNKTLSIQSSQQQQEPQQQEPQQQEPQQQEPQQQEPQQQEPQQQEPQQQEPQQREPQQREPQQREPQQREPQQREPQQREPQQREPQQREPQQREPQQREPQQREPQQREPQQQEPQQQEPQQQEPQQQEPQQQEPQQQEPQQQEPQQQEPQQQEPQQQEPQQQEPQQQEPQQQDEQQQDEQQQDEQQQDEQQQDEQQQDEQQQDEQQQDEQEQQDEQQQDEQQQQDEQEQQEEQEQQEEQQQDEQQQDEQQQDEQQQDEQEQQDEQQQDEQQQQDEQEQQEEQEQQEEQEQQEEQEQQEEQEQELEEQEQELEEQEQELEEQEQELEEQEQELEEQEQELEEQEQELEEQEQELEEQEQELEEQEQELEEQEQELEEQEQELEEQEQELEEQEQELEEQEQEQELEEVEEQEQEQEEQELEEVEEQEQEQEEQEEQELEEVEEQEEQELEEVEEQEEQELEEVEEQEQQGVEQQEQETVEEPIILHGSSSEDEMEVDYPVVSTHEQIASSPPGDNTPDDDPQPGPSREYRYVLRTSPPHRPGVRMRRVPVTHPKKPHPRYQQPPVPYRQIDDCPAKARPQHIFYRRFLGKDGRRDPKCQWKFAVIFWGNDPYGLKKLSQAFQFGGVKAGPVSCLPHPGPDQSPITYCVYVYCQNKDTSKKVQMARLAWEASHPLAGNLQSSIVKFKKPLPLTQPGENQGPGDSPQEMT
AF4-AF9 inh: inhibitors of AF4 peptide binding to AF9, primary screen, biochemical, AlphaScreen, biotin-AF4 peptide, FLAG-AF9, single point; Protein AF-9 (Homo sapiens), P42568; inhibition, % at 10 µM; hit rate 0.47% among 350,000;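 active = every replicate reaching a set inhibition limit, whatever the replicate mean, cut at about 25% in these data; inconclusive = mean inhibition reaches that limit but some replicates miss it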;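 also: 0% = plate neutral control median and 100% = total signal loss; the record names both 10 and 1 µM as test concentration; the first replicate is given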
Calb FLC: C. albicans growth inhibition with fluconazole, primary screen, CaCi-2 strain, Alamar Blue fluorescence. C. albicans CaCi-2 (fluconazole-resistant clinical isolate) + fluconazole, 48 h. growth inhibition, % (concentration not given with the values). hit rate 0.57% among 300,000. AID 1979, 2009;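 active = most replicates above 75%; inconclusive = exactly half above 75%; inactive = most below 75%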;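 also: all wells also contain fluconazole at 8 µg/ml as a sub-toxic cotreatment; 0% = median of DMSO wells and 100% = median of geldanamycin control wells; wells of about 8 µL received 7.5 nL stock; the first replicate is given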
RanGTP-Imp inh: inhibitors of RanGTP-importin-beta interaction, primary screen, biochemical, FRET, CFP-Ran, YFP-importin-beta, homogeneous. Ran GTPase (GTP-bound) - importin-beta complex. cell-free CFP-Ran/YFP-importin-beta FRET ratio. inhibition, % (concentration not given with the values). hit rate 1.1% among 300,000;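 active = most replicates above 15%; inconclusive = exactly half above 15%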;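 also: 0% = DMSO wells and 100% = Ran loaded with GDP instead of GTP; wells of about 40 µL received 100 nL stock; the first replicate is given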
Vif A3G: inhibitors of Vif binding to APOBEC3G peptide, primary screen, biochemical, TR-FRET, GST-Vif 1-94, biotin-A3G peptide, dose response retest (AID 1117319); TR-FRET GST-Vif / biotin-A3G peptide binding; higher % means a stronger effect; test concentration not given here; strong numbers were not always called active; inhibition, %; hits with a dose series show IC50 in µM; hit rate 0.57% among 260,000;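 active = above the screen mean plus three standard deviations and confirmed in dose response; inconclusive = results disagree or hit not tested in dose response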;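 also: Vif residues 1-94 fused to GST binding biotinylated APOBEC3G peptide 110-148; 0% = full assay without inhibitor and 100% = GST in place of GST-Vif; retest series ran down from 100 µM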
T cruzi inh: inhibitors of intracellular T. cruzi growth, primary screen, luminescence, NIH3T3 host cells; T. cruzi beta-gal in NIH3T3, 90 h; inhibition, % (no concentration beside the values); hit rate 1.4% among 300,000; AID 1885, 2009;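 active = mean inhibition across valid replicates above about 55%, limit read from the data; inconclusive = mean below that limit but half or more replicates reach it; inactive = mean below it, under half of replicates reach it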;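 also: signal also drops with host cell toxicity which is not excluded here; 0% = plate median of DMSO wells and 100% = zero luminescence signal; higher percent means less beta-gal luminescence so fewer parasites; stock transfer was 50 nL into about 50 µL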
Bfl-1 A1 inh: caspase 3/7 activation in MEF A1-2A-BIM cells, primary screen, A1 inhibitor project, cell-based, luminescence, HTS; hit rate 0.066% among 330,000; Caspase-Glo 3/7 luminescence, 3 h; percent of clofoctol response, vehicle zero; caspase activation, % (no concentration beside the values);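 active = over half of replicate activation scores above 10%, or exactly half above 10 with the replicate mean above 10; inconclusive = replicate mean below 10 yet half the replicates above 10; inactive = over half of replicates below 10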;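 also: wells of about 30 µL received 50 nL stock; many hits fall short of the cut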
Beta apoptosis: inhibitors of cytokine-induced beta cell apoptosis, primary screen, luminescence; INS-1E cytokine-induced death, ATP luminescence, 48 h; percent of positive-control rescue, neutral wells zero; protection from apoptosis, % (concentration not given with the values); hit rate 0.8% among 300,000; AID 435005, 2010;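 active = all replicates at 75% or more, or half of them and the mean; inconclusive = half reach 75% but not the mean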;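 also: 0% = cytokine-treated negative control wells and 100% = positive control rescue; higher means more ATP so stronger rescue from cytokine killing; wells of about 40 µL received 100 nL stock; the first replicate is given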
* marks the source's active call; other numbers are inactive results; i = inactive; u = inconclusive; x = not tested or not shown; & = joins results of further samples.

SMILES	LANA-H2A inh	AF4-AF9 inh	Calb FLC	RanGTP-Imp inh	Vif A3G	T cruzi inh	Bfl-1 A1 inh	Beta apoptosis
O=C(COc1ccccc1)Nc1ncc2c(n1)CCCC2=O	-7.2	x	21	5.7	-2%	-4	0.9	-1
COc1ccc(Nc2nc3c(C)cccc3cc2C#N)c(OC)c1	2.6	x	29	-4.0	x	3	-0.7	30
O=C1CCCC(=O)C1CS(=O)(=O)c1ccccc1	-6.7	1.0	-5	2.2	1%	3	-0.3	-5
Cn1ncc([N+](=O)[O-])c1C(=O)NC1CCCCC1	-1.2	-1.2	-8	2.3	x	-5	0.2	-4
COc1cc(C(=O)c2ccccc2Cl)c([N+](=O)[O-])cc1OC	2.2	5.8	12	-0.7	-4%	-11	0.5	3
CC(C)c1ccc(C(=O)N2CCN(c3cnn(C)c(=O)c3Cl)CC2)cc1	2.7	1.7	-19	-0.1	u	7	0.1	-4
CCN(CC(=O)Nc1c(F)cccc1F)C(=O)CSC(=S)N1CCCC1	i	0.8	x	x	>100µM*	x	0.4	-6
COc1cccc(C(=O)Nc2nnc(C(C)C)s2)c1	-0.4	x	-12	7.3	0%	6	-0.2	-1
O=C(Nc1c(C(=O)Nc2ccc3c(c2)OCCO3)cnn1-c1ccccc1Cl)c1ccco1	-2.2	x	-11	4.4	-9%&-7%	3	0.6	0
COc1ccc(C(CC(=O)O)NC(=O)c2ccco2)cc1OC (stereo not drawn)	-6.4	x	2	2.7	9%	-14	0.2	-6
Cc1cccc(-n2cnc(C(=O)NNC(=S)Nc3ccc(Cl)cc3)c2)n1	0.4	10	u	1.5	x	16	-0.6	21
Cc1noc(C)c1COc1cccc(C(=O)Nc2ccc3c(c2)OCO3)c1	2.9	1.3	0	2.2	-4%	0	0.4	10
O=C(O)Cc1ccc2ccc3ccccc3c2c1	-5.1	-1.4	-3	-0.4	x	-42	-0.9	-5
COc1cc(/C=C/c2cc(OC(C)=O)c3ccccc3n2)c(OC(C)=O)c([N+](=O)[O-])c1	-1.8	x	6	-3.3	5%	1	0.4	x
O=c1cc(CN2CCN(C/C=C/c3ccccc3)CC2)c2cc(O)c(-c3ccccc3)cc2o1	-2.8	x	1	0.6	-5%	39	1.8	20
COc1ccc(NC(=O)c2cccc(N3C(=O)C4C5C=CC(C6CC56)C4C3=O)c2)c(OC)c1 (stereo not drawn)	3.3	-1.4	19	1.0	x	11	-0.3	-9
Nc1c(N(CCO)C(=O)/C=C/c2ccco2)c(=O)[nH]c(=O)n1Cc1ccccc1	-0.1	-1.8	5	0.4	x	-9	0.8	-4
CCOC(=O)c1cc(-c2ccccc2)n(CC(=O)O)c1C	-3.2	x	x	x	72%	x	2.0	-2
CCCc1cc(=O)oc2cc(OCC(=O)Nc3ccc(S(N)(=O)=O)cc3)ccc12	1.4	0.8	2	2.6	3%	-11	0.7	-6
O=C(CN1CCN(S(=O)(=O)c2ccc(F)cc2)CC1)Nc1ccc2c(c1)OCO2	-5.0	x	11	3.1	2%	4	0.0	-1
COc1cc(OC)cc(C(=O)n2nc(C)cc2C)c1	-11	-9.3	4	-3.2	0%	-14	-0.1	0
COc1cc(CCC(=O)OCC(=O)Nc2ccc(C(N)=O)cc2)cc(OC)c1OC	10.0	-2.6	5	1.6	7%	-10	0.4	-4
Cc1ccc(N(C)S(=O)(=O)c2cccc(C(=O)Nc3nc4ccccc4[nH]3)c2)cc1	1.0	x	13	-3.5	1%	21	-0.4	38
C=C(C)C(=O)Nc1cccnc1Oc1ccc(F)cc1F	-0.4	-0.3	2	-0.3	4%	-2	0.4	-6
O=C(CCc1nnc(-c2ccc3c(c2)OCO3)o1)NC(c1ccccn1)C(F)(F)F (stereo not drawn)	-0.8	-4.6	3	-0.4	11%	-21	-1.0	x
Cc1ccc(S(=O)(=O)N2CCCCC2)cc1NC(=O)COC(=O)c1c(F)cccc1F	-1.8	0.4	-10	u	1%	6	1.2	-4
COc1ccc(NC(=O)COC(=O)CNC(=O)C2CCCCC2)cc1OC	-0.5	-4.5	x	x	x	x	2.0	-4
O=C(CN1CCCCC1)Nc1ccc(NC(=O)c2ccc(Cl)cc2)cc1Cl	-4.7	x	u	-2.9	-8%	10	-0.7	21
COc1ccc(C(=O)NNC(=O)C(=O)NC(C)c2ccccc2)cc1OC (stereo not drawn)	-1.4	0.2	17	x	x	3	-0.2	10
Cc1ccc(NC(=O)CN(c2ccc(Cl)cc2)S(=O)(=O)c2cc([N+](=O)[O-])ccc2Cl)c(C)c1	-6.3	5.2	5	1.6	13%	59*	-0.3	25
N#Cc1sc(NCc2cccc(Cl)c2)nc1Cl	-0.6	1.3	27	3.8	-3%	4	-1.8	4
CCOc1ccc(Cc2nnc(SCC(=O)c3ccc(OC)cc3)o2)cc1	11	0.4	3	-4.4	u	-2	0.5	-3
COc1ccc(CNC(=O)Cn2nc(C(F)(F)F)c(Br)c2C)cc1	-4.7	-1.9	12	-0.6	-2%	11	0.5	-6
CC(NC(=O)c1ccc(Br)cc1)c1ccccc1 (stereo not drawn)	5.3	x	2	4.1	5%	-17	0.2	2
COc1ccccc1N1CCN(C(=O)c2noc(C(C)C)c2[N+](=O)[O-])CC1	-0.1	x	0	2.8	x	-17	0.8	-4
Cc1ccccc1N1CCN(C(=O)c2ccccc2NC(=O)C2CC=CCC2C(=O)O)CC1 (stereo not drawn)	x	x	9	-1.4	9%	-5	0.1	-7
Cc1ccc(C(=O)N(Cc2cccnc2)Cc2cc3cc(C)ccc3n3nnnc23)cc1	-1.4	0.7	-13	1.9	0%	67*	-0.6	-3
Cc1cccc(C)c1NC(=O)CN(C)C(=O)c1cccc(S(=O)(=O)N2CCN(c3ccc(F)cc3)CC2)c1	3.7	-11	0	-2.5	x	18	2.2	45
O=C(c1ccco1)N1CCN(C(=O)c2ccccc2NS(=O)(=O)c2ccc(F)cc2)CC1	2.7	5.1	-3	0.8	x	2	-0.3	-6
Cc1noc(NS(=O)(=O)c2ccc(NC(=O)CCn3c(=O)oc4ccccc43)cc2)c1C	-7.9	-2.7	5	-3.1	1%	2	0.8	-4
Cn1c(=O)c2cc(NCc3ccccc3)nnc2n(C)c1=O	0.7	x	26	8.4	-4%	-7	0.6	-2
CC1CCC(C(C)C)C(OC(=O)Cn2c(-c3ccc(Cl)cc3)[n+](C)c3ccccc32)C1 (stereo not drawn)	1.6	17	-4	3.1	6%	52	-0.4	100*
Cc1c(C(N)=O)sc2ncn(CC(=O)N3CCC(C)CC3)c(=O)c12	-7.0	x	-9	1.2	27%	3	0.0	-4
c1ccc(-c2nc(SCc3nc4ccccc4[nH]3)c3oc4ccccc4c3n2)cc1	-1.1	-1.2	x	x	x	x	0.1	1
Cc1ccc(NC2CCCN(C(=O)c3ccc(C)c(N4CCNC4=O)c3)C2)cc1C (stereo not drawn)	6.5	x	-1	2.3	x	7	-0.5	-3
Cc1nc([N+](=O)[O-])c(C(=O)OCc2ccccc2Br)n1C	6.3	1.3	0	-0.5	15%	2	0.1	7
CC(C)Oc1ccc(/C=C(\C#N)C(=O)NC2CC2)cc1	-2.5	1.3	19	0.7	x	-18	-0.3	-5
O=C(NNC(=O)c1cc(-c2ccc(Cl)cc2)nc2ccccc12)c1csc(N2CCOCC2)n1	-2.5	-14	82*	-2.8	4%	1	0.5	9
CCN(CC)c1ncccc1C(=O)NCc1cccs1	4.0	x	1	-2.6	5%	-12	0.1	x
CCOC(=O)[C@@H]1[C@H]2COc3ccccc3[C@@H]2N2C(=O)N(c3ccc(Cl)cc3)C(=O)[C@]12C	5.4	0.5	9	3.2	x	6	0.1	13
CCOC(=O)CC(NC(=O)CCc1c(C)nc2nc(C)nn2c1C)c1ccc(C)cc1 (stereo not drawn)	12	0.1	-3	2.9	-3%	-1	-0.5	-3
Fc1ccc(NC(=S)NCc2cccnc2)cc1	2.0	-2.2	-3	93*	x	-26	0.6	-8
Cc1ccc(-n2nc3ccc(NC(=O)c4cccc([N+](=O)[O-])c4C)cc3n2)cc1	-1.5	x	0	1.7	x	20	-0.2	1
COCCN(C(=O)C(C)C)c1nnc(-c2cccc(C)c2)s1	-2.8	x	-9	2.0	-5%	13	0.3	-7
COC(=O)c1cc(NC(=O)CN2CCOCC2)cc(C(=O)OC)c1	2.4	x	6	8.2	2%	-9	0.3	-6
CCOC(=O)c1c(-c2ccc(C)o2)csc1NC(=O)CSc1ncn[nH]1	2.9	x	19	-0.5	-7%	-3	-0.7	-6
COc1ccc(CCCC(=O)Nc2cc(C)ccc2OC)cc1	0.9	-2.1	2	-0.4	x	-8	-0.2	8
O=C1NC(Cc2c[nH]c3ccccc23)C(=O)N1Cc1ccc(CN2C(=O)NC(Cc3c[nH]c4ccccc34)C2=O)cc1 (stereo not drawn)	-5.0	5.1	-3	4.5	7%	-6	1.1	-6
CC1CCN(C(=O)COC(=O)c2cccs2)CC1	2.1	-96	x	x	-6%	x	-0.2	-2
CC(=O)Nc1cccc(NC(=O)c2ccc(C)c([N+](=O)[O-])c2)c1	-5.4	-8.8	-8	1.3	x	-9	-2.4	-1

Remaining list, next part.
SMILES	LANA-H2A inh	AF4-AF9 inh	Calb FLC	RanGTP-Imp inh	Vif A3G	T cruzi inh	Bfl-1 A1 inh	Beta apoptosis
COc1cccc(-c2nnc(-c3ccccc3NC(=O)c3ccc(C(C)(C)C)cc3)o2)c1	-6.8	-3.6	-12	1.4	-7%	x	-1.6	x
CCOc1ccccc1NC(=O)N1CCc2ccccc2C1	3.7	-2.0	-3	-3.4	x	-2	0.6	x
COc1cccc(/C=C/c2ccc3cccc(O)c3n2)c1	-1.3	9.2	3	-1.9	x	u	-5.4	50
CCCCN(C(=O)c1ccc(-c2ccc(Cl)cc2)o1)c1c(N)n(CC(C)C)c(=O)[nH]c1=O	-4.0	2.0	x	x	-16%	x	-0.9	6
O=C(O)CSc1nnc(-c2cccs2)n1-c1ccc(Cl)cc1	4.9	x	-7	-0.4	8%	-10	0.2	-2
COc1cccc(C(=O)NCc2ccc3c(c2)cc(C)n3C)c1	-4.6	-1.2	-17	-2.8	x	21	0.6	0
COc1ccc(CN2CCCC(C(=O)c3cccc(C(F)(F)F)c3)C2)cc1O (stereo not drawn)	-3.6	-3.4	-3	-0.8	7%	8	0.9	-6
Cc1c(C(=O)/C=C/N(C)C)nnn1-c1ccc(Cl)cc1C#N	2.7	-0.9	1	2.9	4%	8	0.1	4
C/C(=N\NC(=O)c1cc(C)[nH]n1)c1cccs1	2.5	-11	-6	-3.2	2%	-8	-4.2	1
Cc1ccc(C#N)c(SCC(=O)Nc2nccs2)n1	-4.1	-2.1	0	2.0	-48%	12	-4.4	15

Bioassay records from PubChem BioAssay.

Rows were taken by chance; overall some 4.3% were active at least once.
